D2 ag: agonists of human D2 dopamine receptor (beta-arrestin); AID 624465; P14416; 360,000 tested, 0.084% active; DiscoveRx PathHunter D2 beta-arrestin, luminescence, 90 min; 100% = 57 uM dopamine signal; activation, % (concentration not given with the values); in the data active = activation above about 40%; inconclusive = about 15% to 40%; inactive = below about 15%; further: compound concentration not given in the record; the text of the record calls up to 30% inactive
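DiscoveRx PathHunter D2 beta-arrestin cells (2,100/well) attached overnight, then compound-stimulated 90 min at 37 C in HBSS/10 mM HEPES/0.1% Tween-20 buffer; beta-galactosidase complementation read by luminescence after 1 h at ambient temperature. Dopamine 57 uM final (EC100) as control.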
D2 potentiator: potentiates the human D2 dopamine receptor allosterically; potentiation, % (concentration not given with the values); 360,000 tested, 0.23% active; DiscoveRx D2 beta-arrestin cells, luminescence, 90 min; 100% = 57 uM dopamine signal; AID 624464; active = potentiation of 50% or more; inconclusive = 30% to 50%; inactive = 30% or less;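 further: compound concentration not given in the record; tested on top of an EC20 dose of dopamine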
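PathHunter beta-arrestin assay in DiscoveRx D2 cells. Compounds were added with an EC20 of dopamine (50 nM final) for 90 min at 37 deg C. Luminescence was read 1 h after detection reagent, with 57 uM dopamine as the EC100 control.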
CtBP-E1A inh: CtBP/E1A binding inhibition | AlphaScreen GST-E1A/His-CtBP binding, 1536-well; active compounds read low; control for the full effect not named in the record | activity change, % (test concentration not listed) | 340,000 tested, 0.49% active; in the data active means activity change below about -65%; inconclusive means about -30% to -65%; inactive means above about -30%; further: on the % scale 0 is the no-effect control and ±100 the full control effect
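In 5 uL wells, 23 nL compound meets equimolar GST-E1A and His-CtBP (5X stock 125 nM each) for 2 h, 37 °C. Beads (5X, 50 ug/mL) then 1 h, 37 °C, dark.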
PINK1 modulator: modulators of PINK1 expression; Potency, µM (titrated, usually from 76.6 µM), for the others: at the top dose activation (PINK1 increase), hits mostly activators; PINK1 immunofluorescence, high-content cytometry, 24 h; 410,000 tested, 0.2% active; active = well fitted activation curve with a large enough effect; inconclusive = small, poorly fitted or top-dose-only effect; inactive = flat fitted curve, though single readings scatter; cell line not stated here;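 further: potency means the concentration at half of the fitted maximal effect; % of control where 0% means no effect; nearly all actives have a fitted effect of over 65% in size; a mitochondrial uncoupler was the plate control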
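PINK1 protein, normally rapidly degraded, was detected by immunofluorescence after 24 hour compound treatment of a stable cell line. Titration data (5 concentrations) came from laser-scanning cytometry, with CCCP-treated wells as controls.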
TRPML1 ag: human mucolipin-1 channel agonism | Q9GZU1 | TRPML1-expressing cells, Ca2+ dye fluorescence, FDSS; host cell line not named in the record; reference of the full effect not given here | activation, % (concentration not given with the values) | 410,000 tested, 0.12% active | AID 624414; in the data active = activation above about 50%; inconclusive = about 30% to 50%; inactive = below about 30%; further: 0% is about no effect; the text of the record puts the active cut at 80%
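Tet-induced TRPML1-DL cells, 1,500 per well, cultured overnight, were loaded with a no-wash Ca2+ dye for 45–90 min. Calcium fluorescence was recorded on the FDSS for 110 s after compound addition, before the EC80 agonist (4 uM 54-4) was added.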
Six1-Eya2 inh: blocks human Six1 binding to Eya2 | Q15475+O00167 | AlphaScreen GST-Six1/His-Eya2 binding, biochemical; active compounds read low; control for the full effect not named in the record | activity change, % (concentration not given with the values) | 360,000 tested, 0.56% active; in the data active = activity change below about -65%; inconclusive = about -30% to -65%; inactive = above about -30%; further: on the % scale 0 is the no-effect control and ±100 the full control effect
Target sequence (O00167 whole entry, looked up): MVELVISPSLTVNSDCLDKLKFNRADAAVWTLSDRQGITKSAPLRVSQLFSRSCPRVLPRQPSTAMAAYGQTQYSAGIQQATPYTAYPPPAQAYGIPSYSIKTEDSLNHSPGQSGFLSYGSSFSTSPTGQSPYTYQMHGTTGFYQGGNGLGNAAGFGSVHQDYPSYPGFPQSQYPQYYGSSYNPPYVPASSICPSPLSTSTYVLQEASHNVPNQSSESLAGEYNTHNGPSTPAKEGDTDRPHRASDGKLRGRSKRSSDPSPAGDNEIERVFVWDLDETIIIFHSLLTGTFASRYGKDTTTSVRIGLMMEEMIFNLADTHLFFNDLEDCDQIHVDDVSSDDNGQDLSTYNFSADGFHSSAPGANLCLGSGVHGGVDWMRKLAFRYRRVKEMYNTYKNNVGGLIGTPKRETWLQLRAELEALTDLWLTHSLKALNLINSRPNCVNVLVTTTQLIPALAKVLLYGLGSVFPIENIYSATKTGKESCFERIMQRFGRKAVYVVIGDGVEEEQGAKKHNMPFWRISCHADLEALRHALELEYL
Target sequence (Q15475 whole entry, looked up): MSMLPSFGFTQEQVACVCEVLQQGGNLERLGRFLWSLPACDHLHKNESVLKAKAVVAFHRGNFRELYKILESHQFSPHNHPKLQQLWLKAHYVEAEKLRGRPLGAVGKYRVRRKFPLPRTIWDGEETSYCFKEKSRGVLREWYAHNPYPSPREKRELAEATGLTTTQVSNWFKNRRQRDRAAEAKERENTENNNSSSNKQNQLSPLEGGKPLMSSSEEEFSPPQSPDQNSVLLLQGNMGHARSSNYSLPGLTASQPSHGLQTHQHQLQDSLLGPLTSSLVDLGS
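AlphaScreen with GST-Six1 and His-Eya2 (5X mix: 250 nM and 500 nM), glutathione donor and nickel acceptor beads; buffer 50 mM Tris pH 8.0, 300 mM NaCl, 1 mM TCEP; 1 h at 37 C in the dark.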
* marks the source's active call; other numbers are inactive results; ? = inconclusive; . = not tested or not shown; [ ] = another dose, or the depositor's remark. Not a hit list; overall some 1.3% were active at least once.

Letter code – A = D2 ag; B = D2 potentiator; C = CtBP-E1A inh; D = PINK1 modulator; E = TRPML1 ag; F = Six1-Eya2 inh
Structure: CCOC(=O)c1c(NC(=O)c2cccnc2Cl)sc(C(=O)N(C)C)c1C
  A = -2.2	B = 17	C = -1	D = 4.5%	E = -0.2	F = 5

Structure: Cc1ccc2nc(COC(=O)CNC(=O)c3ccccc3)cn2c1
  A = -4.1	B = 6	C = 8	D = 1.3%	E = -1.2	F = 2

Structure: CNS(=O)(=O)c1ccc(C(C)(C)C)cc1
  A = -2.3	B = -2	C = 0	D = 0.2%	E = -0.7	F = 1

Structure: CCCn1nc(C(=O)Nc2cccc(C(=O)OC)c2)c2ccccc2c1=O
  A = -1.7	B = 13	C = -22	D = -3.7%	E = 5.1	F = -19

Structure: Cn1c(CCc2nc3ccccc3[nH]2)nnc1SCC#N
  A = -1.0	B = -5	C = -11	D = -0.1%	E = 0.0	F = 4

Structure: CC(C)CC1NC(=O)N(CC(=O)Nc2cc([N+](=O)[O-])ccc2F)C1=O (stereo unspecified)
  A = -3.1	B = -7	C = -4	D = 1.1%	E = 1.3	F = 3

Structure: Cc1cccc(-n2nnc(C(=O)N3CCc4ccccc4C3)c2N)c1
  A = -4.0	B = -1	C = 6	D = -2.3%	E = 0.2	F = -2

Structure: O=C(Nc1ccccc1)c1cc([N+](=O)[O-])ccc1N1CCCCC1
  A = -3.1	B = 1	C = -19	D = -0.8%	E = 1.6	F = -15

Structure: CCCOC(=O)c1cc(-c2ccc(/C=C3/C(=O)N(C)C(=O)C(C#N)=C3C)o2)ccc1Cl
  A = 0.2	B = 8	C = -2	D = -1.5%	E = -0.8	F = -4

Structure: O=C(Nc1sc2c(c1C(=O)N1CCOCC1)CCCCC2)c1cccnc1
  A = 3.0	B = -14	C = 8	D = -1.9%	E = 0.9	F = 7

Structure: O=C1c2cccc3cccc(c23)C(=O)N1Cc1ccccn1
  A = -2.9	B = -15	C = 0	D = 3.3%	E = 0.0	F = 38

Structure: O=C(c1cccc([N+](=O)[O-])c1)c1ccc2[nH]c(=O)[nH]c2c1
  A = -2.6	B = -3	C = -3	D = -1.2%	E = -0.2	F = -8

Structure: O=C(CCC(=O)Nc1ccc(F)cc1)N/N=C/c1ccc(Br)cc1
  A = 7.6	B = -6	C = 2	D = -0.1%	E = 0.3	F = 0

Structure: C=CCNC(=O)Cc1ccc(S(=O)(=O)N2CCOCC2)s1
  A = -1.9	B = 3	C = .	D = 0.9%	E = -0.1	F = 9

Structure: Clc1ccc(CSc2nnc(-c3ccc4c(c3)OCO4)o2)cc1
  A = 0.3	B = -16	C = 6	D = 9.3%	E = 3.4	F = 13

Structure: N#Cc1cccc(NC(=O)CN2C(=O)NC(Cc3ccccc3)C2=O)c1 (stereo unspecified)
  A = -4.0	B = 7	C = .	D = 1.5%	E = 0.6	F = 8

Structure: Cc1ccc2[nH]c(=O)c(CN(CCc3ccccc3)C(=O)N3CCOCC3)cc2c1
  A = -0.8	B = 18	C = -3	D = -1.6%	E = 1.0	F = -2

Structure: Cc1cc(C)c(NC(=O)CNC(=O)c2ccc3c(=O)n4c(nc3c2)CCC4)c(C)c1
  A = -4.9	B = -8	C = .	D = -0.1%	E = -0.2	F = 3

Structure: CCC(C)(C)NC(=O)CN(Cc1cccs1)C(=O)CCC(=O)Nc1nccs1
  A = 1.3	B = -15	C = 5	D = .	E = -0.5	F = -1

Structure: Cc1nn(C(=O)c2cccnc2)c(C)c1Sc1ccc(Br)cc1
  A = 0.0	B = -11	C = 25	D = 17%[38.3 µM]	E = 2.9	F = -1

Structure: Cc1cc(C)n(CC(=O)NNC(=O)COc2ccc(F)cc2Br)n1
  A = -4.3	B = -5	C = .	D = 4.5%	E = -1.0	F = 3

Structure: CCCCN(C)S(=O)(=O)c1ccc(C(=O)Nc2nnc(-c3ccco3)o2)cc1
  A = -4.4	B = -8	C = -21	D = -1.8%	E = 0.0	F = -1

Structure: CC(C)(C)C(=O)COC(=O)c1c2c(nc3ccccc13)CCC2
  A = -4.7	B = -8	C = -25	D = 1.2%	E = -0.3	F = -2

Structure: CCOC(=O)c1ccc(NC(=O)C2(c3ccc(OC)cc3)CCCC2)cc1
  A = 1.6	B = -10	C = 18	D = -0.4%	E = 5.5	F = 9

Structure: CN(C(=O)c1cccc(NC(=O)C2CCN(C(=O)OC(C)(C)C)CC2)c1)C1CCC1
  A = -1.7	B = -26	C = 6	D = 0.2%	E = 1.2	F = -1

Structure: CC(=O)Nc1sc2c(c1C(c1ccncc1)N1CCOCC1)CCCC2 (stereo unspecified)
  A = -0.9	B = -9	C = 24	D = 3.4%	E = -0.6	F = 24

Structure: COc1cc(CN2CCC(C(=O)NC(c3ccc(F)cc3)c3ccc4ccccc4n3)CC2)cc(OC)c1 (stereo unspecified)
  A = 1.4	B = -15	C = -26	D = -1.3%	E = 3.1	F = -25

Structure: O=C(NCc1cccnc1)Nc1cc(Cl)cc(Cl)c1
  A = -3.9	B = -35	C = -1	D = 1.1%	E = 0.2	F = 8

Structure: COc1cccc(Cn2cc(C)cc(NC(=O)NCc3ccccc3)c2=O)c1
  A = -3.8	B = -9	C = .	D = 12%	E = 1.3	F = -1

Structure: CC(=O)Nc1cc(C(=O)N2CCCC2)ccc1Sc1ccc(C)cc1
  A = 2.9	B = -12	C = -4	D = 3.2%[38.3 µM]	E = 1.3	F = 0

Structure: Cc1cccc(N(CC(N)=O)S(C)(=O)=O)c1C
  A = 0.7	B = 2	C = 2	D = 0.5%	E = -0.7	F = -1

Structure: COC(=O)Cc1cc(=O)n2c(nc3ccccc32)[nH]1
  A = -0.5	B = -3	C = 10	D = -1.4%	E = 1.2	F = 0

Structure: Cc1cc(C(=O)NN=C2CCCCCCC2)c2ccccc2n1
  A = -2.1	B = 0	C = 4	D = 0.4%	E = -0.4	F = 1

Structure: O=C(Nc1ccc(N2CCOCC2)cc1)c1ccc2ncsc2c1
  A = -2.5	B = -12	C = -4	D = -1.1%	E = 0.4	F = -18

Structure: COCCn1c(C)cc(C(=O)CSc2nc3ccccc3c(=O)n2Cc2ccco2)c1C
  A = 2.4	B = -1	C = 15	D = 2.4%	E = -0.3	F = 6

Structure: CC1CCC(NC(=O)c2cc3c(s2)CS(=O)(=O)C3)CC1 (stereo unspecified)
  A = -1.8	B = -10	C = 10	D = ?	E = 0.0	F = 4

Structure: COc1ccccc1CNC(=O)COc1ccc(S(=O)(=O)N2CCCC2)cc1
  A = -0.4	B = -2	C = -1	D = -0.5%	E = -0.5	F = 2

Structure: COc1ccc(NC(=O)Cn2nc(C(=O)O)c3ccccc3c2=O)cc1S(=O)(=O)N1CCCCC1
  A = -0.4	B = -4	C = -19	D = 2.4%	E = 3.1	F = -28

Structure: CCN1C(=NCCc2cccnc2)N[C@@H](c2ccccc2)[C@H](C(=O)OC)[C@H]1C
  A = 2.0	B = -6	C = 7	D = 0.1%	E = -0.6	F = 5

Structure: CCc1[nH]c(=O)c(C#N)c2c1COC(C)(C)C2
  A = -1.2	B = 0	C = 46	D = 14%[38.3 µM]	E = 0.0	F = 20

Structure: Cc1cccc(C)c1NC(=O)COC(=O)c1c2c(nc3ccccc13)/C(=C\c1ccc3c(c1)OCO3)CCC2
  A = -5.6	B = -5	C = 13	D = -0.2%	E = 1.1	F = 24

Structure: O=C(O)c1ccc(-n2nc(C(F)(F)F)c3c2-c2ccoc2CC3)cc1
  A = 0.4	B = -6	C = 2	D = 4.9%[38.3 µM]	E = 0.1	F = -1

Structure: COC(=O)[C@@H]1C[C@@]2(O)[C@@H](O)[C@@H](O)[C@@H](O)C[C@H]2N1Cc1cc(OC)cc(OC)c1
  A = -4.2	B = -5	C = -19	D = -1.3%	E = 1.3	F = 0

Structure: COc1ccc(CN(Cc2ccncc2)C(=O)CCC(=O)O)cc1
  A = -2.1	B = -11	C = 5	D = 3.5%[38.3 µM]	E = 0.1	F = 3

Structure: COCC(C)NC(=O)c1ccc(-n2nc(C(F)(F)F)cc2-c2cccs2)cc1 (stereo unspecified)
  A = -0.3	B = 6	C = 3	D = -2.4%	E = 3.3	F = 7

Structure: CCOC(=O)CCc1c(C)nc2c(c(C)nn2C(C)(C)C)c1C
  A = -1.9	B = -5	C = 18	D = ?	E = 0.7	F = 22

Structure: COc1cc2c(cc1OC)C(Cc1cc(OC)c(OC)cc1[N+](=O)[O-])=NCC2
  A = 7.9	B = -9	C = 0	D = 1.2%	E = 2.4	F = -17

Structure: COCCNC(=O)c1cn(C)c(=O)c2cc(OC)c(OC)cc12
  A = -0.6	B = -5	C = 3	D = -2.5%	E = 1.9	F = -1

Structure: c1ccc2scnc2c1
  A = 5.4	B = -1	C = 7	D = -0.1%	E = 0.2	F = 7

Structure: CCOc1ccc(/C=C2\SC(=O)N(c3ccc(O)cc3)C2=O)cc1OC
  A = 7.3	B = -5	C = -7	D = 5.0%	E = 1.0	F = 5

Other results
Letter code – A = D2 ag; B = D2 potentiator; C = CtBP-E1A inh; D = PINK1 modulator; E = TRPML1 ag; F = Six1-Eya2 inh
Structure: O=C(COc1ccc([N+](=O)[O-])cc1)NCCC1=CCCCC1
  A = -1.1	B = -17	C = 8	D = 0.8%	E = 0.6	F = 4

Structure: CC(C)Cc1nnc(NC(=O)Nc2ccccc2)s1
  A = 5.2	B = -7	C = 13	D = 2.0%	E = -0.4	F = -17

Structure: Cc1nc(NCc2ccccc2)c2cc[nH]c2n1
  A = 11	B = -2	C = .	D = 4.7%	E = -0.1	F = -1

Structure: CCCn1c(NCc2ccco2)nc2c1c(=O)n(C)c(=O)n2C
  A = 0.7	B = -2	C = 11	D = -0.8%	E = 0.2	F = -3

Structure: Cc1cc(Br)c(OCc2ccc(C(=O)N/N=C/c3ccc[nH]3)cc2)c(Br)c1
  A = 7.5	B = -1	C = 4	D = 0.4%	E = 1.4	F = -10

Structure: Cc1ccc(S(=O)(=O)NNC(=O)c2sc3nc(C)cc(C)c3c2-n2cccc2)cc1
  A = -1.2	B = -3	C = -1	D = -1.5%	E = 2.9	F = -2

Structure: Cc1oc2c(cc(NS(=O)(=O)c3ccc4c5c(cccc35)C(=O)N4)c3ccccc32)c1C(=O)OC(C)C
  A = 5.2	B = ?	C = -11	D = -0.5%	E = 1.4	F = -7

Structure: COC(=O)c1[nH]c2c(c1C)C(=O)CC(c1cc(OC)c(OC)c(OC)c1)C2 (stereo unspecified)
  A = 7.0	B = 3	C = .	D = 2.1%	E = 0.8	F = -2

Structure: O=C(CCC(=O)N(CC(=O)NC1CCCCC1)CC1CCCO1)Nc1nccs1 (stereo unspecified)
  A = -23	B = 2	C = 4	D = -0.5%	E = 1.1	F = 0

4 compounds picked at random from the list so far:
Letter code – A = D2 ag; B = D2 potentiator; C = CtBP-E1A inh; D = PINK1 modulator; E = TRPML1 ag; F = Six1-Eya2 inh
Structure: Cc1oc2c(cc(NS(=O)(=O)c3ccc4c5c(cccc35)C(=O)N4)c3ccccc32)c1C(=O)OC(C)C
  A = 5.2	B = ?	C = -11	D = -0.5%	E = 1.4	F = -7

Structure: Cc1nc(NCc2ccccc2)c2cc[nH]c2n1
  A = 11	B = -2	C = .	D = 4.7%	E = -0.1	F = -1

Structure: CCCn1c(NCc2ccco2)nc2c1c(=O)n(C)c(=O)n2C
  A = 0.7	B = -2	C = 11	D = -0.8%	E = 0.2	F = -3

Structure: CC(C)Cc1nnc(NC(=O)Nc2ccccc2)s1
  A = 5.2	B = -7	C = 13	D = 2.0%	E = -0.4	F = -17
